NPYLR7 agonist: agonists of mosquito NPYLR7 receptor, primary screen, cell-based, Aedes aegypti, calcium fluorescence, mosquito biting behavior | Aedes aegypti neuropeptide Y-like receptor 7 (NPYLR7) | HEK293T NPYLR7/Galpha15, GCaMP6s calcium fluorescence | activation, % at 10 µM | actives 0.15% (n = 270,000); in the data active means activation above about 40%;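 further: 0% = vehicle and 100% = reference agonist at the receptor; some compounds past the cut are filed as inactive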
NPYLR7 agonist max-min: also measured in NPYLR7 agonist; calls as there; activation, %; measured here: Max-Min RFU normalised activation; some inactives read as strong as hits;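 span of the calcium signal over five minutes; 0% = vehicle and 100% = native peptide agonist; compound fluorescence can raise it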
* = called active by the depositor. An excerpt; count on the stated rates, not on these rows.

SMILES | NPYLR7 agonist | NPYLR7 agonist max-min
CNC(=O)[C@@]1(OCc2ccc(F)cc2)CC(OCc2c(F)cccc2F)[C@H](O)[C@H](O)C1 (stereo not given in full) | 4 | 8
CCC(Cn1ccnc1)NC(=O)c1cccc(CC2CCNCC2)c1 (stereo not given) | -4 | -5
N#Cc1cc(C(=O)c2cccs2)c(C(F)(F)F)nc1SCC(N)=O | -5 | -13
CC(C)N1CCC(NC(=O)C2CCN(S(=O)(=O)c3cccc(C(F)(F)F)c3)CC2)CC1 | 7 | 16
Cc1nc(SCc2ccc(C(=O)NCc3ccco3)cc2)nc(N2CCN(C)CC2)c1C | 17 | 27
COc1cccc(CO[C@]2(C(=O)NCCN(C)C)CC(OCc3cccc(OC(F)(F)F)c3)[C@H](O)[C@H](O)C2)c1 (stereo not given in full) | -28 | -15
CCCCCn1c(CCNC(=O)C(C)C)nc2ccccc21 | 0 | 1
COC(=O)c1ccnc(NS(=O)(=O)c2cccc(Cl)c2)c1 | -2 | -6
Cn1cc(S(=O)(=O)N2CCC(Cc3ccccc3)CC2)c(=O)n(C)c1=O | 1 | 0
Oc1cc2ccccc2cc1CN1COc2ccc3ccccc3c2C1 | -3 | -4
O=C(OCc1ccccc1)N1CCC2(CC1)OCc1cc(-c3ccc(C(F)(F)F)cc3)ccc1O2 | -23 | -28
Cc1cc(N)n(-c2cc(C(F)(F)F)ccc2Cl)n1 | -2 | -1
Cc1cccc(N2C(=O)/C(=C/c3ccc(-c4ccc([N+](=O)[O-])cc4)o3)C=C2c2ccccc2)c1 | -1 | 2
CC(C)(C)NC(=O)CN | -8 | -14
Cc1cc(C)n(-c2nc3c(c(=O)n2CC(=O)Nc2ccccc2F)CCCC3)n1 | -7 | -9
CC(=O)NC1=NN(C(C)=O)C2(S1)C(=O)N(CCCOc1cccc(C)c1)c1ccccc12 (stereo not given) | 0 | 5
O=C(Cn1nnnc1CN1CCCC1)NC1Cc2ccccc2C1 | -3 | -6
CCCCNC(=O)N(CC(=O)N1c2ccccc2-n2cccc2C1c1ccc(OC)cc1)C1CC1 (stereo not given) | 21 | 18
CC(C)CN(CC(=O)N(Cc1cccn1Cc1ccccc1)C1CCCCC1)S(=O)(=O)c1ccc(F)cc1 | 3 | 16
COc1ccc(CC(=O)N2CCC3(CC2)CC3C(=O)NCCCc2ccccc2)cc1OC (stereo not given) | 23 | 20
N#C/C(=C\c1c[nH]c2ccccc12)C(=O)c1ccc(O)c(O)c1 | 4 | -25
CCCCNC(=O)C1(C)CCCCN1Cc1ccccc1-c1ccccc1 (stereo not given) | 4 | 2
O=C(O)c1ccc(NC2=C(n3nnc4ccccc43)C(=O)c3ccccc3C2=O)cc1 | 7 | -1
CC(C)N(Cc1csc(COc2cc(Cl)ccc2Cl)n1)C(=O)NC(C)(C)C | 14 | 14
CCOc1ccc(OCC(=O)N2CCN(c3ncnc4c3nnn4C)CC2)cc1 | 1 | 25
OCC1(O)CCCN(Cc2ccncc2)CC1 (stereo not given) | 4 | 4
CCCN1C(=O)COCc2cc(-c3ccccc3OC)ccc21 | 9 | 3
Cc1cc(C)n(CC(=O)NCCN2Cc3ccccc3OC(c3ccccc3F)C2)n1 (stereo not given) | 5 | 5
O=C(Nc1cccnc1)c1ccc(Cl)c(S(=O)(=O)N2CCCCC2)c1 | 2 | 4
Fc1ccccc1NC1=NCCC1 | 4 | 4
CCS(=O)(=O)NC1CCN(c2ccccc2C(=O)NCC2CCCO2)CC1 (stereo not given) | 22 | 19
Cc1ccc2ncn(C3CCN(C(=O)c4c(F)cc(F)cc4F)CC3)c2c1 | 36 | 26
CC(NCC(O)CN1CCOCC1)C(C)n1cccn1 (stereo not given) | 10 | 9
COc1ccc(N=CC(Br)=Cc2ccccc2)cc1OC | 6 | 4
CCCc1[nH]n(-c2ccc([N+](=O)[O-])cc2)c(=O)c1C=NCCCn1ccnc1 | -23 | -28
O=c1[nH]c2ccc(Cl)cc2c(-c2ccccc2)c1C1=NNC(/C=C/c2ccccc2)C1 (stereo not given) | 10 | 8
N#CCc1c(C#N)c(N)nc(N2CCC(C(N)=O)CC2)c1C#N | 0 | -1
COc1cc(OC)cc(C(=O)Nc2ccc(-n3nc(OCC(C)C)nc3-c3ccccc3C)cc2)c1 | 3 | -4
COc1ccccc1CCNC(=O)c1cncn1-c1cccc(-c2ccccc2C(F)(F)F)c1 | 11 | 11
CC(C)C(NC(=O)OC(C)(C)C)C(=O)NS(=O)(=O)c1cccnc1 (stereo not given) | 5 | 5
CCOC(=O)CNC(=O)N1CCN(c2cc(Oc3ccc(Cl)c(C)c3)ncn2)CC1 | -10 | -6
COc1ccc(-n2nc3c(c2NC(=O)/C=C\c2ccc4c(c2)OCO4)CS(=O)(=O)C3)cc1 | -6 | -6
CC1=C(C(=O)OC(C)C)C(c2ccccc2OCc2ccccc2)C2=C(CCCC2=O)N1 (stereo not given) | 0 | 5
CC(=O)N1CCSC1c1cccc(OCc2ccccc2)c1 (stereo not given) | 31 | 29
Cc1ccc(-n2cc(CN3CCN(c4cnccn4)CC3)c(-c3cccc(C)c3)n2)cc1 | -4 | -6
O=C(NCCCN1CCOCC1)C(C1CCCC1)N1CCN(C(=O)C2CC2)CC1 (stereo not given) | -2 | 1
CN(CCOc1ccc(F)cc1)C(=O)CCCc1cccs1 | 2 | -2
CCCc1c(C(=O)N2CCOCC2)cnn1-c1cccc(C)c1 | 22 | 31
Cc1nn(-c2ccccc2)c(C)c1/C=N\N1CCN(C)CC1 | -5 | -6
O=C(Nc1nnc(C2CC2)s1)C1(c2ccc(F)cc2)CCC1 | 6 | 4
CCOc1ccccc1NC(=O)NCC(=O)N1CCC(C(=O)NCc2cccc(OC)c2)CC1 | -14 | -1
CCOC(=O)N1CCC(NC(=O)Cn2nc([N+](=O)[O-])c(Br)c2C)CC1 | -3 | -7
CC(=CC(=O)O)C12CC3CC(CC(C3)C1)C2 | 1 | 6
COc1cccc(-c2ccc(C(=O)N3CCNCC3C(=O)NC3CC3)o2)c1 (stereo not given) | -5 | -6
COc1cc2c(cc1OC)C(C#N)=NC(C)(C)C2 | 1 | -1
O=C(Nc1ccc2nc([C@@H]3O[C@H](CO)[C@@H](O)[C@H]3O)[nH]c2c1)C1Cc2ccccc2O1 (stereo not given in full) | 14 | 20
COc1cc2c(cc1OC)C(c1ccc(F)cc1)N(C(=O)c1cc(C)oc1C)CC2 (stereo not given) | 2 | 11
COc1ccc(N2CCN(c3ncnc4[nH]ncc34)CC2)cc1 | 15 | 13
CC1=Nc2ncnn2C(c2ccccc2)/C1=N/O (stereo not given) | -1 | -2
CN(CC1CCOCC1)C(=O)CC1C(=O)NCCN1CC(c1ccccc1)c1ccccc1 (stereo not given) | 4 | 4
More structures follow:
SMILES | NPYLR7 agonist | NPYLR7 agonist max-min
FC(F)(F)c1ccc(C2CC(c3cccs3)=Nc3nnnn32)cc1 (stereo not given) | 1 | 3
FC(F)(F)CCc1ccnc(NCCc2cnc[nH]2)n1 | 1 | -3
C=S(C)NC(=O)c1ccc[n+](C)c1 (stereo not given) | 6 | 7
Cc1ccccc1N1CCN(Cc2cc(C#CCO)cs2)C(C)C1 (stereo not given) | 20 | 2
COc1ccc2c(c1)CCc1c(-c3ccc(C(=O)NC4Cc5ccccc5C4)cc3)n[nH]c1-2 | 21 | 12
S=C(NCc1ccccc1)NNC(=S)NC1CC2CCC1C2 (stereo not given) | 5 | 2
FC(F)(F)c1ccccc1CN1CCC(OC2CCOC2)CC1 (stereo not given) | 10 | 5
CN(Cc1nccn1Cc1ccccc1)C(=O)c1cc(C2CC2)[nH]n1 | 1 | 0
Cc1ccc(CN(Cc2nc(C(=O)NCc3ccncc3)co2)C(C)C(C)C)c(C)c1 (stereo not given) | 4 | 16
O=C(N=C1N=C2C=CC=CN2Cc2ccccc21)c1cc2c(s1)CCCC2 | 3 | 2
O=C(Cc1c[nH]c2ccccc12)N1CCN(c2ncccn2)CC1 | -4 | -10
CC(C)NC(=O)N(Cc1ccc(F)cc1F)CC1CC(c2ccc(F)cc2F)=NO1 (stereo not given) | 2 | 10
Cc1nc(SC(C)C(=O)Nc2ccnn2C(C)C)c2ccccc2n1 (stereo not given) | 8 | 9
CCOC(=O)[C@@H]1CCCC[C@@H]1NC(=O)CCC(=O)N1CCc2ccccc2C1 | -3 | -7
CCCC12CN(C(=O)c3ccccc3-n3cccc3)CC1C(=O)NC(=O)N2 (stereo not given) | -7 | -10
O=C(c1ccncc1)N1CC[C@@H](N2CCN(c3ccccc3F)CC2)[C@H](O)C1 | 3 | 3
COC(=O)c1cc2c(=O)n(N)ccc2nc1C | 7 | 9
O=C(CC1CCCCC1)NCCNC(=O)C1Cc2ccccc21 (stereo not given) | -7 | -7
CCn1c2c(=O)[nH]c(=O)n(C)c2n2c(-c3ccccc3Cl)nnc12 | 7 | 0
CSC1CCC(N(C)C(=O)C2CCN(C(=O)CCc3ccccc3)CC2)C1 (stereo not given) | -7 | -6
COc1ccc(CNC(=O)c2cccnc2N2CCN(C(=O)c3cccc(Cl)c3)CC2)cc1 | 14 | 3
CCOC(=O)c1ccccc1NC(=O)CSc1c(CC(C)C)cnc2c1c(=O)n(C)c(=O)n2C | 8 | 9
Cc1cc(Cl)cc2sc(NCCN3CCOCC3)nc12 | 1 | 0
CN(CCc1ccccn1)C(=O)c1ccc(-c2cc(-c3cccc(C(F)(F)F)c3)n[nH]2)cc1 | -5 | -18
O=C(NCc1ccco1)c1coc(CN(CCc2c[nH]c3ccccc23)Cc2ccc(F)cc2)n1 | 23 | 40
CCOC(=O)c1c(C)oc2nc(CN3CC(C)CC(C)C3)[nH]c(=O)c12 (stereo not given) | 6 | 7
CCC(Oc1ccccc1F)C(=O)Nc1cccnn1 (stereo not given) | -3 | -4
O=C(OCCC1CCN(C(=O)c2ccccc2)c2ccccc21)c1ccccc1 (stereo not given) | -5 | -7
CN1CCCN(c2nc(-c3cc(C(F)(F)F)cc(C(F)(F)F)c3)cn3ccnc23)CC1 | -9 | -13
CC(C)c1ccc(O)c(C(=O)N2CCN(c3ccc(C#N)cn3)CC2)c1 | 3 | -2
CCS(=O)(=O)c1ccc2c(c1)N(Cc1ccc(C)cc1)C(=O)C(C)O2 (stereo not given) | 3 | 0
Cc1cc(C)n2nc(C(=O)N3CCOC(Cc4ccccc4Cl)C3)cc2n1 (stereo not given) | 7 | 2
CCOc1ccc(-c2cnc(-c3cccnc3OC)[nH]2)cc1 | -1 | -3
CCC(Oc1ccccc1)C(=O)N1CCc2c(nc(-c3ccccn3)[nH]c2=O)C1 (stereo not given) | 4 | 2
Cc1nc(CC(=O)NCCc2cccc(F)c2)cs1 | 8 | 2
O=C1CSC(=NN=Cc2cc(Br)ccc2O)N1 | 5 | 5
COc1ccc(CN(Cc2nccn2C)C(C)C)cc1Cl | 3 | 1
COc1cccc(OC)c1C(=O)NC(Cc1ccccc1)c1nnc(SCc2ccc(F)cc2)n1-c1ccc(Cl)cc1Cl (stereo not given) | -8 | 1
CCc1ncc(C(=O)N2CCCC(COc3ccccc3C)C2)cn1 (stereo not given) | 0 | 12
Cc1nnc2ccc(NCC3(N4CCCCC4)CCOCC3)nn12 | 13 | 9
CCC(C)N(CN1C(=S)SC2=NC(=O)CCCN21)C(C)CC (stereo not given) | -3 | -4

Fetched by compound from the entries so far (3):
SMILES | NPYLR7 agonist | NPYLR7 agonist max-min
CCOc1ccc(-c2cnc(-c3cccnc3OC)[nH]2)cc1 | -1 | -3
CCC(C)N(CN1C(=S)SC2=NC(=O)CCCN21)C(C)CC (stereo not given) | -3 | -4
CCOC(=O)c1ccccc1NC(=O)CSc1c(CC(C)C)cnc2c1c(=O)n(C)c(=O)n2C | 8 | 9

In the list so far, 12 contain a Cl atom:
SMILES | NPYLR7 agonist | NPYLR7 agonist max-min
COC(=O)c1ccnc(NS(=O)(=O)c2cccc(Cl)c2)c1 | -2 | -6
Cc1cc(N)n(-c2cc(C(F)(F)F)ccc2Cl)n1 | -2 | -1
CC(C)N(Cc1csc(COc2cc(Cl)ccc2Cl)n1)C(=O)NC(C)(C)C | 14 | 14
O=C(Nc1cccnc1)c1ccc(Cl)c(S(=O)(=O)N2CCCCC2)c1 | 2 | 4
O=c1[nH]c2ccc(Cl)cc2c(-c2ccccc2)c1C1=NNC(/C=C/c2ccccc2)C1 (stereo not given) | 10 | 8
CCOC(=O)CNC(=O)N1CCN(c2cc(Oc3ccc(Cl)c(C)c3)ncn2)CC1 | -10 | -6
CCn1c2c(=O)[nH]c(=O)n(C)c2n2c(-c3ccccc3Cl)nnc12 | 7 | 0
COc1ccc(CNC(=O)c2cccnc2N2CCN(C(=O)c3cccc(Cl)c3)CC2)cc1 | 14 | 3
Cc1cc(Cl)cc2sc(NCCN3CCOCC3)nc12 | 1 | 0
Cc1cc(C)n2nc(C(=O)N3CCOC(Cc4ccccc4Cl)C3)cc2n1 (stereo not given) | 7 | 2
COc1ccc(CN(Cc2nccn2C)C(C)C)cc1Cl | 3 | 1
COc1cccc(OC)c1C(=O)NC(Cc1ccccc1)c1nnc(SCc2ccc(F)cc2)n1-c1ccc(Cl)cc1Cl (stereo not given) | -8 | 1

Assay outcomes as filed in PubChem BioAssay.
